# AF4-AF9 inh = inhibitors of AF4 peptide binding to AF9, primary screen, biochemical, AlphaScreen, biotin-AF4 peptide, FLAG-AF9, single point; hit rate 0.47% among 350,000; AID 651704, 2012; inhibition, % at 10 µM;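 active = every replicate reaching a set inhibition limit, whatever the replicate mean, cut at about 25% in these data; inconclusive = mean inhibition reaches that limit but some replicates miss it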;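 also: 0% = plate neutral control median and 100% = total signal loss; the record names both 10 and 1 µM as test concentration; the first replicate is given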
# Target sequence (P42568 whole entry, looked up): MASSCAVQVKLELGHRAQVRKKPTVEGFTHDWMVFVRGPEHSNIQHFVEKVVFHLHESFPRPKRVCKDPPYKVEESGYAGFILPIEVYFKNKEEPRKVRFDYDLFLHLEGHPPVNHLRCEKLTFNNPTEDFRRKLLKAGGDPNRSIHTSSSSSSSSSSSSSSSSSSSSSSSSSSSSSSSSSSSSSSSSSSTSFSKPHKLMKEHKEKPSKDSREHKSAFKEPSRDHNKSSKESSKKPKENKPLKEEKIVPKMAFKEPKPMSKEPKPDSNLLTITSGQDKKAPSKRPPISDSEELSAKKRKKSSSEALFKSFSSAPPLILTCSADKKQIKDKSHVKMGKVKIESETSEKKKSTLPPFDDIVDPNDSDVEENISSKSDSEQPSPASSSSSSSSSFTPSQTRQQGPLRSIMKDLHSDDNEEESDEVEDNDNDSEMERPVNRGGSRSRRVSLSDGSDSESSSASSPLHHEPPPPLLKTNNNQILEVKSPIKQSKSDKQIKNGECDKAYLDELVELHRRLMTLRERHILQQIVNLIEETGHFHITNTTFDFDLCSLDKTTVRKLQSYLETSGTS
# Beta cell apopt = inhibitors of cytokine-induced beta cell apoptosis, primary screen, luminescence. hit rate 0.8% among 300,000. protection from apoptosis, % (concentration not given with the values). INS-1E cytokine-induced death, ATP luminescence, 48 h; percent of positive-control rescue, neutral wells zero;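 active = all replicates at 75% or more, or half of them and the mean; inconclusive = half reach 75% but not the mean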;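 also: 0% = cytokine-treated negative control wells and 100% = positive control rescue; higher means more ATP so stronger rescue from cytokine killing; wells of about 40 µL received 100 nL stock; the first replicate is given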
# Vif TR-FRET = inhibitors of Vif binding to APOBEC3G peptide, primary screen, biochemical, TR-FRET, GST-Vif 1-94, biotin-A3G peptide, dose response retest (AID 1117319). TR-FRET GST-Vif / biotin-A3G peptide binding; higher % means a stronger effect; test concentration not given here; strong numbers were not always called active. inhibition, %, or IC50 in µM where a hit was titrated. hit rate 0.57% among 260,000;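 active = above the screen mean plus three standard deviations and confirmed in dose response; inconclusive = results disagree or hit not tested in dose response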;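 also: Vif residues 1-94 fused to GST binding biotinylated APOBEC3G peptide 110-148; 0% = full assay without inhibitor and 100% = GST in place of GST-Vif; retest series ran down from 100 µM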
# Calb FLC = C. albicans growth inhibition with fluconazole, primary screen, CaCi-2 strain, Alamar Blue fluorescence; C. albicans CaCi-2 (fluconazole-resistant clinical isolate) + fluconazole, 48 h; growth inhibition, % (concentration not given with the values); hit rate 0.57% among 300,000; AID 1979, 2009;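 active = most replicates above 75%; inconclusive = exactly half above 75%; inactive = most below 75%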;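 also: all wells also contain fluconazole at 8 µg/ml as a sub-toxic cotreatment; 0% = median of DMSO wells and 100% = median of geldanamycin control wells; wells of about 8 µL received 7.5 nL stock; the first replicate is given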
# LANA-H2B inh = blockers of LANA interaction with H2A/H2B – biochemical, FP readout, HTS, primary screen; inhibition, % (no concentration beside the values); AID 2629, 2010; cell-free LANA-H2A/H2B peptide, fluorescence polarization; Protein LANA1 (Human herpesvirus 8 type P (isolate GK18)), Q9QR71; hit rate 0.6% among 320,000; in the data active = inhibition mostly above about 10%, no sharp cut-off; inactive = mostly below about 6.7%;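 also: stock transfer was 7.5 nL into about 10 µL; 0% = median of vehicle wells and 100% = median of positive control wells; one replicate is shown; the record names a cut of 25% in any replicate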
# T cruzi repl = inhibitors of intracellular T. cruzi growth, primary screen, luminescence, NIH3T3 host cells | T. cruzi beta-gal in NIH3T3, 90 h | inhibition, % (no concentration beside the values) | hit rate 1.4% among 300,000;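 active = mean inhibition across valid replicates above about 55%, limit read from the data; inconclusive = mean below that limit but half or more replicates reach it; inactive = mean below it, under half of replicates reach it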;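 also: signal also drops with host cell toxicity which is not excluded here; 0% = plate median of DMSO wells and 100% = zero luminescence signal; higher percent means less beta-gal luminescence so fewer parasites; stock transfer was 50 nL into about 50 µL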
# RanGTP-Impb inh = inhibitors of RanGTP-importin-beta interaction, primary screen, biochemical, FRET, CFP-Ran, YFP-importin-beta, homogeneous; Ran GTPase (GTP-bound) - importin-beta complex; cell-free CFP-Ran/YFP-importin-beta FRET ratio; inhibition, % (no concentration beside the values); hit rate 1.1% among 300,000;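 active = most replicates above 15%; inconclusive = exactly half above 15%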;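 also: 0% = DMSO wells and 100% = Ran loaded with GDP instead of GTP; wells of about 40 µL received 100 nL stock; the first replicate is given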
# Bfl-1 A1 inh = caspase 3/7 activation in MEF A1-2A-BIM cells, primary screen, A1 inhibitor project, cell-based, luminescence, HTS; Caspase-Glo 3/7 luminescence, 3 h; percent of clofoctol response, vehicle zero; hit rate 0.066% among 330,000; caspase activation, % (concentration not given with the values); AID 2462, 2010;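 active = over half of replicate activation scores above 10%, or exactly half above 10 with the replicate mean above 10; inconclusive = replicate mean below 10 yet half the replicates above 10; inactive = over half of replicates below 10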;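 also: wells of about 30 µL received 50 nL stock; many hits fall short of the cut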
# The depositor's hits bear a star; ? = inconclusive; nt = not tested or not shown; & = joins results of further samples.
SMILES,AF4-AF9 inh,Beta cell apopt,Vif TR-FRET,Calb FLC,LANA-H2B inh,T cruzi repl,RanGTP-Impb inh,Bfl-1 A1 inh
CCOC(=O)c1c(C)nn(-c2ccc(NC(=O)/C=C/C(=O)O)cc2)c1C,-0.8,-9,nt,2,-3.0,-13,2.4,-0.7
O=C1CN(C(=O)N[C@@H](Cc2ccccc2)C(=O)N[C@H](Cc2ccccc2)C(=O)O)c2ccccc2N1,-3.8,-6,nt,-8,-2.2,-15,0.1,0.1
COc1ccc(/C=C/C(=O)Nc2cccc(F)c2)cc1S(=O)(=O)N1CCOCC1,4.9,1,1%,-16,-5.9,14,-2.1,0.1
CCc1ccc(CNC(=O)Cc2ccc(NC(=O)C3=C(C)OCCS3)cc2)cc1,-1.6,28,nt,-26,-7.0,-1,?,-0.8
COC(=O)c1cc(-c2cccs2)nn1-c1ccccc1,-3.2,3,-1%,3,5.3,-6,-0.2,-0.6
COc1cc(/C=C/C(=O)OCC(=O)NC2CCS(=O)(=O)C2)ccc1OC(F)F (stereo not drawn),-0.5,-2,nt,nt,-1.0,nt,nt,0.3
O=C(c1cc(-c2ccccc2)nn1CC1CC(c2cccnc2)=NO1)N1CCOCC1 (stereo not drawn),nt,-5,nt,-7,0.4,-21,-5.0,0.3
N=C1C(c2ccccc2)=C(O)CN1c1cccc(O)c1,-7.1,8,11%,9,-7.3,4,-1.7,-0.7
Cc1ccc(NC(=O)COC(=O)c2cccnc2Cl)cc1S(=O)(=O)N1CCOCC1,0.2,0,nt,nt,0.3,nt,nt,-0.9
COc1ccc(C2(CNC(=O)c3ccco3)CCOCC2)cc1,nt,2,2%,-16,1.4,-5,-2.8,0.4
CC(=O)c1sc2ccccc2c1OC(=O)c1ccco1,nt,0,-3%,23,-4.5,0,38*,0.3
Nc1cc(C(=O)O)ccc1Sc1ccccc1C(=O)O,-1.9,-8,-5%,-14,2.8,-4,8.6,-0.3
Cc1ccc2ccccc2c1NC(=O)Cn1nnc(-c2cccnc2)n1,-1.2,-2,3%,10,-5.9,-8,-1.6,0.8
Cc1c(C(=O)OCc2ccc(F)cc2)sc2nc3n(c(=O)c12)CCC3,-0.8,0,-6%,10,-5.9,9,2.5,-0.7
Cc1cc(NC(=O)CCCS(=O)(=O)c2nc(-c3cccs3)cc(C(F)(F)F)n2)no1,nt,14,10%,-1,0.6,-20,1.4,0.6
O=C(COC(=O)c1cccnc1Cl)Nc1ccccc1OC(F)F,-1.8,-7,-2%,2,-24,-8,-1.2,0.4
Cc1cc(OCC(=O)OCC(=O)N2CC(C)CC(C)C2)ccc1Cl (stereo not drawn),-4.4,-5,-5%,nt,-2.4,nt,nt,-0.6
S=C(NCc1ccc(Cl)cc1)N1CCN(c2ccccn2)CC1,-2.3,2,14%,-17,5.0,-7,-1.6,0.2
CCN1CCN(C(=O)c2cc3c(OC)c(OC)c(OC)cc3[nH]2)CC1,-5.7,-3,-5%,3,-1.3,2,0.8,0.4
Cc1c(C)c2ccc(O)c(CN3CCN(C)CC3)c2oc1=O,-4.9,-1,1%,5,-3.4,-26,4.2,-1.2
COC1CCCN(Cc2nc(Cc3ccccc3F)no2)C1 (stereo not drawn),-0.3,-5,nt,0,-3.4,0,1.6,0.8
Cc1cc(OC(C(=O)O)c2ccccc2)c2c(C)c(Cc3ccccc3)c(=O)oc2c1 (stereo not drawn),0.6,-12,1%,-3,-1.0,-8,3.8,0.1
CCOC(=O)C1CCN(C(=O)C2CCN(S(=O)(=O)N3CCC4(CC3)OCCO4)CC2)CC1,-2.4,-2,-4%,-6,1.4,-2,-2.0,-1.1
CCOC(=O)N1CCN(C(=O)CCSc2ccc(Cl)cc2)CC1,nt,2,7%,-24,-4.6,-13,1.3,0.8
Cc1ccn2cc(CCNC(=O)Cc3cccs3)nc2c1,-2.5,-7,-4%,15,-2.7,-11,5.5,0.7
# The results go on:
SMILES,AF4-AF9 inh,Beta cell apopt,Vif TR-FRET,Calb FLC,LANA-H2B inh,T cruzi repl,RanGTP-Impb inh,Bfl-1 A1 inh
COCCOc1ccc(C(F)(F)F)cc1NC(=O)c1ccccc1F,nt,-2,nt,1,3.8,3,0.1,-0.4
CC(=O)C1C(c2ccc(F)cc2)NC(=O)NC1(O)C(F)(F)F (stereo not drawn),nt,-1,-4%,9,-3.3,-33,-0.8,0.9
C[C@H](CO)N1C[C@H](C)[C@@H](CN(C)C(=O)Nc2ccc(C(F)(F)F)cc2)Oc2ccc(NC(=O)Nc3ccc(C(F)(F)F)cc3)cc2C1=O,-0.3&-0.9,-25,nt,nt,-1.7,nt,nt,-1.0
O=S(=O)(Nc1ccc(N2CCCCC2)cc1)c1ccc(F)c(F)c1,9.6,6,-5%,11,-2.3,17,?,0.1
CCN(CC)C(=O)COc1ccc2c(-c3ccccc3)cc(=O)oc2c1,2.5,-2,nt,1,-7.8,19,0.3,1.3
O=C(c1ccc(NS(=O)(=O)c2cccc(F)c2)cc1)N1CCCC1,-2.1,nt,-14%,-2,-4.3,-14,1.3,-0.3
Cn1c(N2CCOCC2)nc2c1c(=O)n(Cc1ccc(Cl)cc1)c(=O)n2C,nt,1,-7%,-2,1.3,-6,-6.8,0.7
Cc1ccc(-c2nnc(Nc3ccc(CC(N)=O)cc3)c3ccccc23)cc1S(=O)(=O)NCCO,-0.6,nt,nt,0,0.6,-15,-4.1,-1.0
COC(=O)CNc1nc(-c2cccnc2)nc2ccccc12,nt,-8,1%,nt,1.6,nt,nt,?
COc1ccc(-c2nc(CS(=O)CC(=O)NCc3ccco3)c(C)o2)cc1OC (stereo not drawn),2.3,-14,2%,-3,1.2,-2,-0.7,0.7
O=C(c1ccc(F)cc1)N1C2CCC1CC(O)(c1ccccc1F)C2 (stereo not drawn),nt,-1,-3%,9,-16,-2,2.3,0.0
Cc1ccc(Nc2nc(N)c([N+](=O)[O-])c(NCc3ccccc3)n2)cc1,-1.7,nt,24%,0,-2.1,24,3.8,1.4
O=S1(=O)N=C(N/N=C/c2cccs2)c2ccccc21,2.0,-3,0%,0,2.0,-9,-5.7,0.3
O=C(Nc1cccnc1)c1ccc(NC(=O)c2ccco2)cc1,nt,7,-2%,1,1.2,3,-1.1,-0.3
CC(=O)N(c1cccc(C)c1)S(=O)(=O)c1ccc(Cl)cc1,-0.8,1,4%,28,-0.5,-2,1.5,-0.1
Cc1ccnc(NC(=O)CN2C(=O)c3ccccc3S2(=O)=O)c1,-1.8,-4,-1%,7,1.0,-7,-0.1,0.9
Cc1ccc(S(=O)(=O)Nc2nc3ccc(N)cc3s2)cc1,0.0,4,nt,44,-0.5,3,-1.4,1.0
O=C(CCC(=O)N1CCN(c2ccccc2F)CC1)c1ccc(Cl)s1,-0.1,-1,nt,nt,-1.6,nt,nt,-0.9
COc1ccc(N2CC(C(=O)Nc3ccc(S(=O)(=O)N4CCCC4)cc3)CC2=O)cc1 (stereo not drawn),1.0,1,2%,1,3.6,-9,3.4,1.0
C/C(=N/Nc1ccc([N+](=O)[O-])cc1)c1c[nH]c2ccccc12,3.9,8,0%,-50,-2.8,38,-18,0.6
NC(=O)C1CCN(C(=S)NCc2ccc3c(c2)OCO3)CC1,0.0,-1,8%,?,0.2,-5,-0.2,0.6
O=C(NC1(C(F)(F)F)N=C(c2ccccc2)NC1=O)c1ccccc1F (stereo not drawn),nt,-5,-4%,-4,1.8,-3,3.6,0.6
CCOC(=O)CC(NC(=O)c1cc2cccc(OC)c2oc1=O)c1cccc([N+](=O)[O-])c1 (stereo not drawn),nt,4,-16%,6,5.2,0,0.6,0.0
Cc1noc(/C=C/N(C)C)c1S(=O)(=O)N1CCCC(C(=O)NCc2cccs2)C1 (stereo not drawn),-3.4,0,-1%,-3,-8.9,15,0.5,1.0
OC(COc1ccc(Cl)cc1)CN1CCN(c2ccccn2)CC1 (stereo not drawn),-1.5,-4,nt,-5,-7.6,22,-4.1,0.5
# (next part)
SMILES,AF4-AF9 inh,Beta cell apopt,Vif TR-FRET,Calb FLC,LANA-H2B inh,T cruzi repl,RanGTP-Impb inh,Bfl-1 A1 inh
CCc1nnc(NS(=O)(=O)c2ccc(N3C(=O)C4CC=C(Cl)CC4C3=O)cc2)s1 (stereo not drawn),nt,-3,3%,2,-2.8,0,?,-0.2
CC(C)N(Cc1ccccc1)C(=O)Cn1c(=O)cnc2ccccc21,-6.3,3,-10%,-2,2.3,-3,-7.3,0.1
Cc1ccnc(NS(=O)(=O)c2ccc(NC(=O)c3ccc(Cl)cc3[N+](=O)[O-])cc2)n1,-0.3,-8,nt,-2,1.3,10,4.2,-2.1
COc1cccc(-n2c(SCC(=O)N3c4ccccc4CC3C)nnc2-c2ccco2)c1 (stereo not drawn),nt,22,-1%,nt,-2.7,nt,nt,2.5
CC(=O)Nc1ccc(NC(=O)CSc2nnc(C)n2-c2ccccc2)cc1,-9.4,-1,nt,-3,-4.4,1,-1.3,1.4
CCOc1cc(/C=C2/SC(=S)N(CC(=O)O)C2=O)ccc1OC(=O)c1cccs1,3.3,-7,4%,-7,-9.2,-3,-3.9,0.3
CC1CC(C)CN(c2ccc([N+](=O)[O-])cc2-c2nn[nH]n2)C1 (stereo not drawn),nt,6,5%,1,5.8,-25,-0.5,-0.3
CN1CCN(C(=O)CCS(=O)(=O)c2cc3c(cc2Cl)NC(=O)CO3)CC1,1.2,-1,-7%,0,1.6,-9,3.7,0.0
O=C(NC1CCN(S(=O)(=O)c2ccc(F)cc2)CC1)c1cccnc1,0.7,-4,nt,35,7.6,8,-3.4,-0.1
CC(C)c1ccc(N2C(=O)CC(NNC(=O)c3cccnc3)C2=O)cc1 (stereo not drawn),-7.7,-7,1%,9,-6.0,-10,0.4,0.2
COc1ccc(NC(=O)Nc2ccc(Br)cn2)cc1,1.8,-2,12%,1,-7.3,6,?,-0.4
CC(=O)Oc1ccc2ccccc2c1C(NC(=O)C(C)C)c1cccc([N+](=O)[O-])c1 (stereo not drawn),3.5,3,0%,30,-2.3,22,2.7,0.1
O=C1CN(C(=O)c2cc3ccccc3oc2=O)C(c2ccc(F)cc2)c2cc(F)ccc2N1 (stereo not drawn),-1.2,nt,1%,9,-2.2,-2,4.7,1.1
COc1cc(C(=O)N2CCN(C(=O)c3cc(-c4ccc(Br)cc4)n[nH]3)CC2)cc(OC)c1OC,-4.9,nt,3%,-7,5.8,-4,3.3,-0.3
C=CCn1c(SCC(=O)NCC2CCCO2)nnc1C1CCCCC1 (stereo not drawn),nt,nt,-5%,-1,-2.1,-2,1.4,0.5
CC(=O)Nc1ccc(OC(=O)COc2ccc(Br)cc2)cc1,-1.9,3,3%,-12,0.9,-14,7.6,0.1
O=C(COc1nncc2ccccc12)NCCC1=CCCCC1,nt,-2,-3%,-6,5.1,0,-5.2,-0.2

# High-throughput results deposited in PubChem by several laboratories.
